Arbovirus inh – arbovirus infection inhibition; arbovirus infection cell-based antiviral screen; 200,000 tested, 0.37% active; inhibition, % at 10 µM;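 active = inhibition from about 30%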;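 note: bluetongue infection of BSR cells; cell survival read as ATP light after 72 h; 0% = infected wells without compound and 100% = uninfected wells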
Mtb bLac sens – beta-lactam sensitization of Mtb H37Rv; inhibition, % at 25 µM; M. tuberculosis H37Rv growth with meropenem, percent inhibition; hits of this screen are not shown here; 330,000 tested, 0.27% active; AID 434955;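 active = about 74% or more and at least 40 points above the plate without the antibiotic, then above 30% in a dose series; inconclusive = first-round hits that could not be retested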;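 note: growth measured after seven days incubation then overnight dye step; 0% = bacteria only wells and 100% = bacteria with antibiotic; twin plates without the antibiotic show which effects depend on it; some results filed as inactive read as strong as hits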
RecA splice inh – blocks M. tuberculosis RecA intein splicing | P9WHJ3 | 290,000 tested, 0.75% active | AID 2221 | cell-free RecA intein splicing, fluorescence | inhibition, %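 (about 9 µM by stock and volumes)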; in the data active = inhibition above about 30%; inconclusive = no clear call, values can overlap the other calls;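 note: 0% = vehicle wells and 100% = reference inhibitor control wells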
Target sequence (P9WHJ3 whole entry, looked up, canonical isoform): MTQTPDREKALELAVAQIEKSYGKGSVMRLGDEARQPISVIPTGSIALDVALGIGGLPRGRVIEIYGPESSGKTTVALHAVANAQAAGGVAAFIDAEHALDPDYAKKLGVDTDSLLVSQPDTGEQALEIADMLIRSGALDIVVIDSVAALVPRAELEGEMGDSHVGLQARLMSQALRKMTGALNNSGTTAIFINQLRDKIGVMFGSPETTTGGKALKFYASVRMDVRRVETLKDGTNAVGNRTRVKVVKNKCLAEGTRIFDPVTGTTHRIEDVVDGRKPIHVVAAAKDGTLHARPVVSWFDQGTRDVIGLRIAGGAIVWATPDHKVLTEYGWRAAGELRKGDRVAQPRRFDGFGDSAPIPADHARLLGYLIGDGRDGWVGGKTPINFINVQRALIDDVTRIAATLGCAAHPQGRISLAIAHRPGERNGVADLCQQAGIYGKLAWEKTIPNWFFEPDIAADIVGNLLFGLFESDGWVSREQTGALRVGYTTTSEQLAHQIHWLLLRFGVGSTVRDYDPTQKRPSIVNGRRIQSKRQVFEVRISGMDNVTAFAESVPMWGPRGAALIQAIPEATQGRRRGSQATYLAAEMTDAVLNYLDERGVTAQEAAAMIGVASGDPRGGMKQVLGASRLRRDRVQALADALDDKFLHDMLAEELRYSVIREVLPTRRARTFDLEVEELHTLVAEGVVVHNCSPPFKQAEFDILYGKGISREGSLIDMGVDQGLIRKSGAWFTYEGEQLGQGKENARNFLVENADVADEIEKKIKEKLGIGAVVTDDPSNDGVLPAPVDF
YopH PTP inh – blocks Yersinia enterocolitica YopH tyrosine phosphatase. 140,000 tested, 0.16% active. inhibition, %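 (about 10 µM by stock and volumes)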. fluorescence Ex485/Em525;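 active = inhibition of 50% or more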;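 note: controls were vehicle for no effect and minimum signal wells for full effect; inactives centre near -20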
Mtb growth – M. tuberculosis H37Rv growth inhibitors, H37Rv strain (AID 1626); M. tuberculosis H37Rv growth inhibition; higher % means a stronger effect; inhibition, % at 10 µM; hits with a dose series show IC50 in µM; 220,000 tested, 0.95% active;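 active = confirmed in a dose series; inconclusive = inhibition above 80% but not taken into the dose series; inactive = below 80% or under 30% at every dose of the series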;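 note: bacteria incubated seven days before Alamar blue readout; 0% = bacteria only wells and 100% = bacteria with antibiotic wells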
Arbovirus inh repeat – recorded beside Arbovirus inh, whose call it bears; inhibition, %; measured here: 10K subset replicate screen; many hits read low in the repeat;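 first of two repeat runs on a subset; 0% = infected and 100% = uninfected wells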
* marks the source's active call; other numbers are inactive results; ? = inconclusive; . = not tested or not shown. An excerpt. The share of hits here may be higher or lower than overall.

The first 7 records as a preview:
SMILES	Arbovirus inh	Mtb bLac sens	RecA splice inh	YopH PTP inh	Mtb growth	others
CC(NS(=O)(=O)c1ccc(F)cc1)C(c1cccs1)N1CCOCC1 (centres undefined)	-3	1	2.8	7	2%
O=C(/C=C/c1ccc(F)cc1)NCc1ccco1	6	6	1.6	-23	-6%
CCn1c(C(O)c2ccc(C)cc2)nc2ccccc21 (centres undefined)	-4	-10	-4.3	-29	1%
COc1ccc(/C=N/NC(=O)C2CC2)c(OC)c1OC	.	3	-1.4	.	.
O=c1[nH]c2c(oc3ccccc32)c(=O)n1Cc1ccccc1	.	-5	-2.3	.	.
Cn1cc(S(=O)(=O)N2CCOCC2)cc1C(=O)NCc1ccc(Cl)cc1	.	-7	0.2	.	.
O=C(CSc1nnc(Cn2cnc3ccccc32)o1)c1ccccc1	-13	-12	-0.7	-114	0%

The whole of this part (from the top)
SMILES	Arbovirus inh	Mtb bLac sens	RecA splice inh	YopH PTP inh	Mtb growth	others
CC(NS(=O)(=O)c1ccc(F)cc1)C(c1cccs1)N1CCOCC1 (centres undefined)	-3	1	2.8	7	2%
O=C(/C=C/c1ccc(F)cc1)NCc1ccco1	6	6	1.6	-23	-6%
CCn1c(C(O)c2ccc(C)cc2)nc2ccccc21 (centres undefined)	-4	-10	-4.3	-29	1%
COc1ccc(/C=N/NC(=O)C2CC2)c(OC)c1OC	.	3	-1.4	.	.
O=c1[nH]c2c(oc3ccccc32)c(=O)n1Cc1ccccc1	.	-5	-2.3	.	.
Cn1cc(S(=O)(=O)N2CCOCC2)cc1C(=O)NCc1ccc(Cl)cc1	.	-7	0.2	.	.
O=C(CSc1nnc(Cn2cnc3ccccc32)o1)c1ccccc1	-13	-12	-0.7	-114	0%
COc1ccc([N+](=O)[O-])cc1NC(=O)CS(=O)(=O)c1ccc(C)cc1	4	0	-1.8	.	0%
COc1ccc(CC(=O)Oc2ccc(C(C)C)cc2)cc1S(=O)(=O)N1CCOCC1	.	-4	3.3	.	.
Cc1cccc(NC(=O)c2sc3nc4c(c(-c5ccco5)c3c2N)CCC4)c1	-3	9	5.1	-28	7%
CC(C)CC(=O)NC1(C(F)(F)F)NC(=O)N(c2ccccc2)C1=O (centres undefined)	3	1	2.3	.	6%
C[C@@H]1CN(C(=O)c2ccc(OC3CCN(S(=O)(=O)N(C)C)CC3)cc2)C[C@H](C)O1	.	-5	1.8	.	.
O=c1c(-c2ccnn2-c2ccccc2F)cnc2n1CCS2	5	-1	-0.7	8	-12%
O=C(Nc1ccc2nc3n(c(=O)c2c1)CCCC3)c1cncc(Br)c1	.	-3	0.1	.	.
COCc1nnc(NC(=O)c2ccc(S(=O)(=O)N(C)c3ccccc3)cc2)o1	2	.	1.1	-27	-9%	Arbovirus inh repeat=-3
Cc1ccc(CCNC(=O)C2CC(c3ccccc3C(F)(F)F)=NO2)cc1 (centres undefined)	.	-7	2.0	.	-6%
COc1ccc([N+](=O)[O-])cc1NC(=O)Cn1ccc(C(F)(F)F)n1	7	1	-3.2	.	4%
CCCC[C@@H]1CCCO[C@@](C(=O)NCc2ccc(C)o2)(C(F)(F)F)C1	.	-6	3.5	.	1%
COc1cccc(/C=C/C(=O)OCC(=O)Nc2ccc(S(=O)(=O)N3CCCC3)cc2)c1	2	13	7.1	-19	2%
CCOC(=O)C[C@H]1c2ccc(C(F)(F)F)cc2S(=O)(=O)N1Cc1ccccc1	.	-6	-0.7	.	-5%
COc1cccc(CN2CCN(CC(=O)NCCc3ccccc3)CC2)c1	.	-5	1.1	.	.
O=C(/C=C/c1cccs1)Nc1ccc(S(=O)(=O)Nc2ncccn2)cc1	.	3	2.8	.	-6%
CCOC(=O)Cn1nnnc1CN(Cc1ccc(OC)cc1)Cc1cc2cc(C)cc(C)c2[nH]c1=O	10	-2	-1.9	26	-2%
Cc1nc2ccccc2c(=O)n1-n1cnnc1	3	-2	-0.9	-27	-1%
CCNC(=O)CC1C(=O)N(c2ccc(OC)cc2)C(=S)N1CCc1ccncc1 (centres undefined)	6	0	1.3	.	11%
CCC(C)(C)NC(=O)CN(C(=O)C(=O)Nc1ccc2c(c1)OCCO2)C(C)(C)CC	-4	-2	0.7	.	-1%
Cc1csc(NC(=O)CSCC(=O)Nc2ccccc2)n1	-3	-9	5.3	-8	-7%
CCOc1ccc(S(=O)(=O)NCCC(=O)NCCOc2ccccc2)cc1	.	-2	3.5	.	.
CCN(CC)N=Nc1ccc(S(=O)(=O)Nc2c(C)n(C)n(-c3ccccc3)c2=O)cc1	.	2	1.7	.	.
CCOC(=O)C1(CCCc2ccccc2)CCN(C2CCC2)CC1	1	-4	-0.6	.	-1%
O=C(NCc1ccc2c(c1)OCO2)c1ccc(Br)cc1	.	3	-1.8	.	.
CCOC(=O)C1=C(C)N=c2s/c(=C/c3ccco3)c(=O)n2C1c1cccc(OC)c1 (centres undefined)	-9	-1	8.5	-45	5%
CC1(C)Cc2ccccc2-c2nc(CN3CCOCC3)[nH]c(=O)c21	5	0	0.4	-37	-8%
Cc1cccc(C(=O)NCC(=O)OCc2nnc(-c3ccccc3)o2)c1	.	-2	-3.2	.	.
COc1ccc(CCNC(=O)CSCc2ccc(C)cc2)cc1OC	.	-6	2.5	-32	-1%
Cc1ccc(N2CC(O)Cn3c2nc2c3c(=O)[nH]c(=O)n2C)cc1 (centres undefined)	.	2	-1.8	.	.
COCCn1c(-c2ccc(Cl)cc2)nc2oc3cc(OC)ccc3c(=O)c2c1=O	.	41	0.2	.	-6%
COc1ccc(C2c3ccc(O)cc3Oc3ncn(CCN4CCOCC4)c(=N)c32)cc1OC (centres undefined)	.	-12	3.0	.	15%
O=C(C1COc2ccccc2O1)N1CCc2ccccc2C1 (centres undefined)	4	-10	3.7	-4	-2%
CCn1cc(CN(C)C(=O)CSc2nc(-c3ccco3)cc(C(F)(F)F)n2)c(C)n1	.	-2	4.0	-20	-2%
CCN1C(=O)[C@H]2[C@@H](c3ccc(-c4ccc(Cl)c(Cl)c4)cc3)N[C@@](C)(C(=O)OC)[C@H]2C1=O	.	-11	1.1	.	.
CCC(CC)C(=O)Nc1cc(C(=O)OC)ccc1C(=O)OC	0	-6	1.9	-7	21%
CC(C)CC(c1nnnn1C(C)C)N1CCN(c2cccc(Cl)c2)CC1 (centres undefined)	-2	-7	11	-46	4%
O=C(N/N=C/c1cc([N+](=O)[O-])ccc1O)/C(=C\c1cccs1)NC(=O)c1ccccc1	-21	11	-2.6	-34	-9%
CCOC(=O)C1CCN(S(=O)(=O)c2ccc(OCC(=O)OC)cc2)CC1	-6	3	-2.9	-7	-10%
CCn1ccnc1CN1CCCC(C(=O)c2ccc(OC)cc2OC)C1 (centres undefined)	1	0	1.7	.	-1%
COc1ccc(OC)c(N=Cc2c(O)c3ccccc3oc2=O)c1	.	3	-3.0	.	.
CCCCn1c(CCC(=O)O)nc2cc(S(=O)(=O)N(CC)CC)ccc21	.	-6	4.2	.	-4%
COc1ccc(NC(=S)NC(=O)/C=C/c2ccco2)c(OC)c1	.	-1	0.9	.	.
CN(Cc1cccc(Cl)c1Cl)C(=O)c1cccc(S(=O)(=O)N2CCN(Cc3ccccc3)CC2)c1	.	-8	9.3	.	.
O=c1[nH]c(C2CCN(S(=O)(=O)c3cccc([N+](=O)[O-])c3)CC2)nc2c1nnn2Cc1ccccc1	.	9	4.4	.	.
Cc1cc(OC(C)C(=O)NCc2cccnc2)c2c(C)c(C)c(=O)oc2c1 (centres undefined)	.	-3	5.7	.	.
O=C(Nc1cccc(S(=O)(=O)NC2=NCCC2)c1)c1cc(-c2ccccn2)nc2ccccc12	.	-5	0.4	.	-2%
COc1ccccc1N1CCN(C(=O)CCCN2C(=O)c3cccc4cccc(c34)C2=O)CC1	2	15	2.5	-54	18%
Cc1c2ccccc2cc(Cc2ccccc2)[n+]1C	.	-3	2.9	.	.
Cc1ccc(-c2c3c(nc4sc(C(N)=O)c(N)c24)CCC3)cc1	15	24	-3.7	-160	14%
Cc1ccc2c(Cl)c(C(=O)NCCCn3ccnc3)sc2c1	-2	?	0.9	-32	1%
COc1cc(COCC(O)CN2CCN(Cc3ccc4c(c3)OCO4)CC2)cc(OC)c1OC (centres undefined)	2	2	.	.	2%
COCc1nnc(NC(=O)CCCOc2ccccc2)s1	-1	6	1.3	-33	-3%
CN(Cc1ccco1)C(=O)CCc1nc2sc3c(c2c(=O)[nH]1)CCCC3	.	-12	0.5	.	.

Going on with the list:
SMILES	Arbovirus inh	Mtb bLac sens	RecA splice inh	YopH PTP inh	Mtb growth	others
CNc1ccccc1NC(=O)CCn1c(=S)oc2ccccc21	.	-8	-0.8	.	8%
NN1C(=O)/C(=C2/Sc3ccccc3N2CCCS(=O)(=O)O)SC1=S	.	-5	-6.8	.	.
COC(=O)c1ccc(C2/C(=C(/O)c3ccc(Cl)cc3)C(=O)C(=O)N2C2CCS(=O)(=O)C2)cc1 (centres undefined)	.	3	-0.2	.	.
O=C(O)c1cccc(-n2c(O)c(C=C3N=c4ccccc4=N3)sc2=S)c1	.	14	-4.7	.	-10%
Cc1cccc(/C=N/NC(=O)c2cc(Br)ccc2O)n1	.	73	-1.4	.	.
CCN(CC(=O)N1CCOCC1)S(=O)(=O)c1ccccc1	.	-7	0.2	.	.
N/C(=N\OC(=O)c1ccc2ccccc2c1)c1ccccn1	0	55	-1.4	.	6%
COC(=O)C[C@H]1c2cc(F)cc(F)c2S(=O)(=O)N1C1CCN(Cc2ccccc2)CC1	.	-3	-2.0	.	-3%
CC1=C(C(=O)OCC(C)C)C(c2ccsc2)NC(=O)N1 (centres undefined)	3	6	0.5	10	-4%
CCOC(=O)Nc1ccc(S(=O)(=O)NCCCN2CCOCC2)cc1	2	4	-0.1	28	-3%
Cc1cccc(C)c1N1CCc2cn[nH]c21	6	-2	6.1	9	3%
COc1ccc(C2SCC(=O)N2C)cc1 (centres undefined)	13	-5	-1.0	-16	0%

As a short view, 5 of the compounds above.
SMILES	Arbovirus inh	Mtb bLac sens	RecA splice inh	YopH PTP inh	Mtb growth	others
COC(=O)C[C@H]1c2cc(F)cc(F)c2S(=O)(=O)N1C1CCN(Cc2ccccc2)CC1	.	-3	-2.0	.	-3%
CC1=C(C(=O)OCC(C)C)C(c2ccsc2)NC(=O)N1 (centres undefined)	3	6	0.5	10	-4%
CCOC(=O)Nc1ccc(S(=O)(=O)NCCCN2CCOCC2)cc1	2	4	-0.1	28	-3%
Cc1cccc(C)c1N1CCc2cn[nH]c21	6	-2	6.1	9	3%
COc1ccc(C2SCC(=O)N2C)cc1 (centres undefined)	13	-5	-1.0	-16	0%

Carrying on:
SMILES	Arbovirus inh	Mtb bLac sens	RecA splice inh	YopH PTP inh	Mtb growth	others
O=C(Nc1cccc(-n2cnnn2)c1)c1ccncc1	.	6	1.1	.	.
CCn1c(Cc2cccc3ccccc23)nnc1SCC(=O)Nc1nccs1	-3	-9	-0.9	-11	-1%
CCOC(=O)C1CCCN(c2nc3c(C)cccn3c(=O)c2/C=C(\C#N)C(=O)NCc2ccco2)C1 (centres undefined)	.	-4	-6.3	.	4%
O=C(O)c1ccc(NC(=O)C2(c3ccccc3)CCOCC2)cc1	4	5	-1.1	-3	1%
COc1ccccc1NC(=S)NC12CN3CN(CN(C3)C1)C2	-12	-6	-3.4	.	1%
CCN(CC)C(=O)CSC1=Nc2ccccc2C2=NC(c3ccccc3)C(=O)N12 (centres undefined)	7	-3	-0.1	-18	-2%
NNCc1cccc(O)c1	.	2	0.0	.	-2%
CCc1nnc(NC(=O)c2ccc(N3C(=O)CCC3=O)cc2)s1	2	2	-0.2	-19	7%	Arbovirus inh repeat=5
O=C(/C=C/c1ccc2c(c1)OCO2)Nc1nncs1	.	-3	-4.2	.	0%
CCNC(=S)N(CCCN(CC)CC)Cc1cc2cc3c(cc2[nH]c1=O)OCO3	.	-7	-5.6	.	.
CCCOc1ccc(C(=O)Nc2cc(-c3nn4c(C)nnc4s3)ccc2C)cc1	4	-3	-0.9	-6	2%	Arbovirus inh repeat=-2
Cc1cccc(C)c1-n1nnnc1-c1cnccc1C(F)(F)F	.	-5	-1.0	.	-7%
O=c1c2ccccc2c(=O)n(-c2ccccc2)n1CCCCBr	.	7	12	.	.
CCO[C@@H]1OC(C(N)=O)=C[C@H](c2ccc(C(F)(F)F)cc2)[C@H]1CCCO	5	-5	-1.8	.	-5%
COc1ccc(/C=N/NC2=NS(=O)(=O)c3ccccc32)cc1OC	.	2	-5.6	.	.
